Screening results from PubChem.
NPYLR7 agonist: activates Aedes aegypti NPYLR7 receptor | activation, % at 10 µM | HEK293T NPYLR7/Galpha15, GCaMP6s calcium fluorescence | hit rate 0.15% among 270,000; in the data active = activation above about 40%;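 note: 0% = vehicle and 100% = reference agonist at the receptor; some compounds past the cut are filed as inactive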
NPYLR7 agonist max-min: recorded beside NPYLR7 agonist, whose call it bears; activation, %; measured here: Max-Min RFU normalised activation; some inactives read as strong as hits;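 span of the calcium signal over five minutes; 0% = vehicle and 100% = native peptide agonist; compound fluorescence can raise it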
* marks the source's active call; other numbers are inactive results; & = joins results of further samples. Only part of the results is shown; the hit share may differ from the screen's.

SMILES	NPYLR7 agonist	NPYLR7 agonist max-min
COCCN1C(=O)N(C2Cc3ccccc3C2)C(=O)C12CCN(Cc1nccs1)CC2	10	-4
CC(C)c1cc(C(=O)NC2CCC(n3cnnc3)CC2)cs1 (centres undefined)	1	-2
CN1CCN(S(=O)(=O)c2ccc(NCc3ccccc3Cl)c([N+](=O)[O-])c2)CC1	28	20
NC(=S)COc1ccccc1	4	13
CN1CCC(NCc2ccc(OCc3ccccc3)cc2)C1=O (centres undefined)	6	2
CC[C@H](C)[C@H](NC1CCN(c2ccc(NS(=O)(=O)N(C)C)cc2)CC1)C(=O)OC	0	0
CC(c1ccc(F)cc1)N(C)C(=O)CCN1CCCO1 (centres undefined)	9	7
Cc1ccc(-n2c(=O)[nH]c3c(C(N)=O)nc(C4CCCCC4)nc32)cc1C	-5	-8
CC(C)c1ccc(C(C)NCCS(=O)(=O)c2ccc(Br)cc2)cc1 (centres undefined)	0	-2
COc1cc(OC)cc(C(=O)NC2CCN(c3ccccc3C(=O)N(C)C3CCCCC3)CC2)c1	-2	11
C/C(=N\NC(=O)CNc1ccc(I)cc1C)c1ccc(Br)cc1	10	12
COc1cccc(C2=NN(C(=O)CN3CCN(c4ccccc4F)CC3)C(c3ccccc3C)C2)c1 (centres undefined)	20	18
c1ccc2oc(NC3=NCN(CC4CCCO4)CN3)nc2c1 (centres undefined)	6	0
CC1CCCN(S(=O)(=O)c2ccc3c(c2)nc(SCc2ccc(C(F)(F)F)cc2C(F)(F)F)n3C2CCCC2)C1 (centres undefined)	18	13
CCOC(=O)CNc1c(-c2ccc(Cl)c(Cl)c2)nc2ccc(Cl)cn12	2	5
CCN(CC)CCNc1nc(Nc2cccc(C)c2)c2cnn(-c3ccccc3)c2n1	2	0
CCn1c(C2CCCN(C(=O)Nc3cccc4ccccc34)C2)n[nH]c1=O (centres undefined)	8	4
Cn1c(=O)[nH]c2nnc(-c3cccs3)nc2c1=O	-1	-1
CNc1cnc(-c2ccc(OC)nc2)cn1	-1	-3
O=C(CN1C(=O)C2C3c4ccccc4C(c4ccccc43)C2C1=O)OCC(=O)c1ccccc1 (centres undefined)	-3	-3
CCOC(=O)CCC(=O)Nc1ccc(C2NC(=S)N(CC)C(C)=C2C(=O)OC)cc1 (centres undefined)	19	18
CC(CCc1ccco1)NC(=O)CCN1CCCCO1 (centres undefined)	5	2
Cc1cccc(-n2nc3c(c2N)CSC3)c1	-5	-10
COc1ccc(C(=O)NCCC(=O)Nc2nnc(-c3cccc(C)c3)s2)cc1	19	29
Cc1cc(S(=O)(=O)N2CCNCC2)ccc1Br	6	2
Cn1cc(C(=O)NNC(=O)Cc2cccnc2)c2ccccc21	17	7
CCN(CC)CCNc1ncnc2c1sc1nc(C)c3c(c12)CC(C)(C)OC3	10	7
CC(=O)N1CCCN(c2ccc(-c3nc(-c4cccc(Cl)c4)no3)cn2)CC1	5	1
CCCOc1cc(Nc2ccc(NC(=O)Nc3ccccc3Cl)cc2)nc(C)n1	27	21
CCNC(=O)C1(C)CCCN1C(=O)Cc1ccccc1 (centres undefined)	2	1
O=C(C(Cc1ccc([N+](=O)[O-])cc1)N1C(=O)c2ccccc2C1=O)N1CCOCC1 (centres undefined)	-2	-4
O=C(O)c1cccc(NCN2C(=O)c3ccc([N+](=O)[O-])cc3C2=O)c1	-8	-16
O=C(Cn1ccccc1=O)N1CCN(Cc2ccc(Cl)s2)CC1	3	3
Cc1nc(NC(=O)/C=C/c2cccnc2)sc1-c1ccccc1	4	3
CC(C)CN(Cc1cccc(OS(=O)(=O)c2cccc(C(F)(F)F)c2)c1)C(=O)Nc1ccc(C(F)(F)F)cc1	15	14
COc1cc2c(cc1OC)C(C(C)NC(=O)c1cccs1)N(Cc1cccc(F)c1)CC2 (centres undefined)	-5	-3
COc1ccc(C(=O)N(CCN2CCOCC2)Cc2nccn2Cc2ccccc2C(F)(F)F)cc1	-1	6
CCOC(=O)C(=O)N1CCN(c2nc3nccc(-c4ccc(Cl)c(Cl)c4)n3n2)CC1	-1	-1
Clc1cc(Cl)c(OCc2nc3c4ccccc4ncn3n2)cc1Cl	-2	7
COc1ccc2c(c1)C(OC(C)=O)C(C)(C)C(c1ccc(F)cc1)N2 (centres undefined)	11	16
CC1(C)OC[C@H]2O[C@]3(COC(=O)NCCCn4cccn4)OC(C)(C)O[C@@H]3[C@H]2O1	-2	-12
CC(C(=O)N1CCCC1)n1c(=O)n(Cc2ccccc2)c(=O)c2ccc(Cl)cc21 (centres undefined)	33	30
Nc1ccc2cn[nH]c2c1	0	-2
COc1ccc(-n2nnc3c(SCC(=O)N4CCCCCC4)ncnc32)cc1	9	16
CCn1c(=S)[nH]c2cc(S(N)(=O)=O)ccc21	9	8
CN1CCCn2nc(C(=O)N[C@H]3COC[C@@H]3N3CCOCC3)cc2C1	-2	0
COc1ccccc1C(=O)C=Cc1ccc(C(=O)O)cc1	27	19
COc1ccccc1CCC(=O)N1CCC2(CC1)OCc1cc(-c3ccc(F)cc3F)ccc1O2	1	-13
CC1=NN(c2ccc(S(N)(=O)=O)cc2)C(=O)/C1=C\c1ccc2c(c1)OCO2	-8	-14
Cc1ccc(CN(CCc2ccccc2)C(=O)CN(Cc2ccc([N+](=O)[O-])cc2)CC2CCCO2)o1 (centres undefined)	-2	0
Cc1nc(=O)c(-c2ccccc2)c(C)n1-c1ccccc1O	80*	81*
COCc1cc(CN2CCCC(Nc3ccc(OC)c(OC)c3)C2)ccc1OC (centres undefined)	19	8
Cc1cc(F)ccc1NC(=O)C(C)NC(=O)c1cc(C(C)C)on1 (centres undefined)	9	3
CC(c1ccc(F)c(F)c1)N(C)C(=O)c1cc(Cl)c[nH]1 (centres undefined)	8	3
C=CCn1cc(CN2CCN(c3ccccc3OCC)CC2)c(C)n1	-9	-12
O=C(O)C1CC1c1ccc(OCc2ccccc2)cc1 (centres undefined)	7	1
O=C(NCC1CCCCC1)c1cccnc1Oc1cccc([N+](=O)[O-])c1	-10	-16
CCCCn1c(=O)c2c(nc3n2C(C)C(C)=NN3CC(=O)OC)n(C)c1=O (centres undefined)	9	16
CCOc1ccc(-c2cncnc2)cc1	3	0
CCc1nc(N2CCN(S(=O)(=O)c3ccc(Br)cc3)CC2)c2c3c(sc2n1)CCCC3	-1	1

Reprinted from the results shown, 5 compounds:
SMILES	NPYLR7 agonist	NPYLR7 agonist max-min
COc1ccccc1CCC(=O)N1CCC2(CC1)OCc1cc(-c3ccc(F)cc3F)ccc1O2	1	-13
CC1=NN(c2ccc(S(N)(=O)=O)cc2)C(=O)/C1=C\c1ccc2c(c1)OCO2	-8	-14
Cc1ccc(CN(CCc2ccccc2)C(=O)CN(Cc2ccc([N+](=O)[O-])cc2)CC2CCCO2)o1 (centres undefined)	-2	0
Cc1nc(=O)c(-c2ccccc2)c(C)n1-c1ccccc1O	80*	81*
COCc1cc(CN2CCCC(Nc3ccc(OC)c(OC)c3)C2)ccc1OC (centres undefined)	19	8

(more compounds)
SMILES	NPYLR7 agonist	NPYLR7 agonist max-min
COCCC(=O)Nc1ccc2c(c1)CN(Cc1cc(CC(C)C)n[nH]1)CC2	8	7
O=C(C1CCC(CNc2c(N3CCCC3)c(=O)c2=O)CC1)N1CCCCC1 (centres undefined)	3	-2
O=C(COc1ccc(Cl)cc1)N1CCCC(OCc2cccc(Cl)c2)C1 (centres undefined)	-2	2
c1ccc(CSc2nnc(-c3cccnc3)o2)cc1	24&8	11&7
Cc1ccc(S(=O)(=O)N2CCC(C(=O)NCC3(N(C)C)CCCCC3)CC2)cc1C	-2	-3
C=CCNC(=S)N=C1CCN(c2ccccc2)N1	-2	30
COc1ccc(N(CCC(=O)O)S(=O)(=O)c2ccc(C)c(C)c2)cc1	-1	0
CC1(C)SC(=NN=Cc2cccc(OS(=O)(=O)c3ccc(Br)cc3)c2)NC1=O	-3	-4
CCCc1cc(C(=O)N2CCC3(CC2)Nc2ccccc2NC3=O)n(C)n1	-1	-2
CN(CC(O)c1ccccc1)C(=O)c1ccc2nc(C3CCCCC3)oc2c1 (centres undefined)	7	4
COc1cc2nc(NC(=O)CN3CCSC3=O)sc2cc1OC	7	6
O=C(Nc1nnc(-c2ccc(Cl)cc2)o1)c1ccncc1	2	1
O=C1NC(=S)N/C1=C/c1cccc([N+](=O)[O-])c1	2	12
O=C(Nc1cccc(-c2ccc(N3CCCCC3)nn2)c1)C(F)(F)F	-3	-3
O=C(NC1CCN(c2ccccc2C(=O)N2CCOCC2)CC1)c1ccc(C(F)(F)F)cc1	0	9

Shown with two lines to a compound: part of the list above.
Every second line gives: NPYLR7 agonist	NPYLR7 agonist max-min
- COCCC(=O)Nc1ccc2c(c1)CN(Cc1cc(CC(C)C)n[nH]1)CC2
→ 8	7
- COc1cc2nc(NC(=O)CN3CCSC3=O)sc2cc1OC
→ 7	6

Random excerpt: 6 records from the list
SMILES	NPYLR7 agonist	NPYLR7 agonist max-min
C=CCNC(=S)N=C1CCN(c2ccccc2)N1	-2	30
O=C(NC1CCN(c2ccccc2C(=O)N2CCOCC2)CC1)c1ccc(C(F)(F)F)cc1	0	9
O=C(COc1ccc(Cl)cc1)N1CCCC(OCc2cccc(Cl)c2)C1 (centres undefined)	-2	2
COCCC(=O)Nc1ccc2c(c1)CN(Cc1cc(CC(C)C)n[nH]1)CC2	8	7
CCCc1cc(C(=O)N2CCC3(CC2)Nc2ccccc2NC3=O)n(C)n1	-1	-2
Cc1ccc(S(=O)(=O)N2CCC(C(=O)NCC3(N(C)C)CCCCC3)CC2)cc1C	-2	-3

(next part)
SMILES	NPYLR7 agonist	NPYLR7 agonist max-min
O=c1[nH]c(=O)n(Cc2ccn(-c3ccc(F)cc3)n2)cc1Cl	-19&-1	-22&-1
Cc1ccc(-c2cc(CO)ccn2)c2cccnc12	0	-1
CNc1nc2cnc(Nc3ccccc3)cc2n1-c1cccc(C(F)(F)F)c1	1	-4
CCC(c1nc2ccccc2c(=O)n1CC)N(CC(C)C)C(=O)c1ccc(Cl)cc1Cl (centres undefined)	7	18
CC(=O)c1ccc(CN2CCCN(c3ccc(F)cc3)CC2)cc1	4	4
COc1ccc2nc(-c3ccc(NS(=O)(=O)c4ccccc4Cl)cc3)cn2n1	-7	-9
CCN1CCN(C(=O)Nc2cn(CCOC)c3ccccc23)CC1	21	11
N#CCSc1nnc(-c2cccc(S(=O)(=O)N3CCOCC3)c2)o1	3	1
C=CCn1c(SCc2cccc(C(F)(F)F)c2)nnc1-c1cccc(C)c1	-4	1
COc1ccccc1CCNC(=O)c1ccccc1N1CCC(NC(=O)CCc2ccccc2)CC1	4	18
O=[N+]([O-])c1ccc(Cl)c(S(=O)(=O)Nc2cccc(S(=O)(=O)NC3=NCCC3)c2)c1	-3	-5
O=S(=O)(NCc1cn2ccccc2n1)c1ccc2c(c1)OCCO2	0	-1
Cn1c(C2CCCN(S(C)(=O)=O)C2)nn(Cc2ccc(Cl)cc2Cl)c1=O (centres undefined)	-4	3
CCc1cccc(NC(=O)CCC(=O)N2CCOCC2CC(=O)O)c1 (centres undefined)	-5	-9
COc1ccc(-c2nnc(OC)c3ccccc23)cc1	-3	-9
NC(=O)C1CCCCN1C(=O)CSc1nnc(Nc2ccccc2F)s1 (centres undefined)	1	-2
COC(=O)C(c1cc(F)ccc1F)N(C)C(=O)Cn1cccc(C(F)(F)F)c1=O (centres undefined)	0	3
C[C@@H]1[C@H]2C[C@@H](C[C@H]1NC(=O)c1cccc(C(=O)N[C@@H]3C[C@@H]4C[C@H]([C@H]3C)C4(C)C)n1)C2(C)C	-6	-13
Cc1ccccc1-c1cnc(-c2ccncc2)nc1C1CCCN(C(=O)c2ccc3ccccc3c2)C1 (centres undefined)	28	9
O=CN1CCN(CN2C(=O)C(=O)c3ccccc32)CC1	-1	-8
Cc1cc(N2C(=O)c3oc4ccccc4c(=O)c3C2c2cccc(Cl)c2)no1 (centres undefined)	1	-2
CCOC(=O)CCNC(=O)NC1CC(=O)N(CC2CCCCC2)C1 (centres undefined)	7	1
Cc1cc(CNC(=O)c2cncnc2C)c2[nH]c(-c3ccccc3)c(C)c2c1	10	3
CN1CCn2nc(-c3nc4ccccc4n3C)cc2C1	0	-3
O=C(c1cc2ccccc2oc1=O)N1c2ccccc2Sc2ccccc21	3	0
Cc1ccc(-n2c(=O)cc(N3CCCCCC3)[nH]c2=O)cc1	3	5
OCC1(Cc2ccccc2)CCN(Cc2cccc3ccccc23)CC1	13	14
COc1ccc(N2CCN(CC(=O)N3CCC(O)CC3)C2=O)cc1	-5	-7
CCC(CC)C(=O)N1CCC(c2cn(Cc3ccc(C(F)(F)F)cc3)c3ccccc23)CC1	4	2
O=C(O)c1cc(-c2ccc(F)cc2)nc2cc(-c3ccccc3)nn12	-5	-1
NC(=O)c1cn(CC(=O)N2C[C@@H]3[C@H](C2)[C@H]2CC[C@@H]3O2)c2ccccc12	8	5
COc1cccc(C2c3[nH]c4ccccc4c3CCN2CCCn2cccn2)c1 (centres undefined)	0	1
CCOC(=O)c1c(C)n(-c2ccccc2C)c2ccc(OC(C)=O)cc12	-3	-4
O=C(NOCc1ccc(F)cc1Br)C1CCCC1	-7	-9
O=c1ccc(-c2ccco2)nn1CCNS(=O)(=O)c1cccs1	-1	-4
CN(Cc1nc2ccc(Cl)cc2[nH]1)C(=O)c1cc(C2CC2)[nH]n1	1	2
O=C(N=C1N=C2C=CC=CN2Cc2ccccc21)c1cc[n+]([O-])cc1	6	11
CC(=O)N[C@@H]1C[C@H](Cc2ccccc2)O[C@H](c2ccc(-n3cncn3)cc2)C1	5	6
CC1(c2cccs2)NC(=O)N(CN2CCN(c3ncccn3)CC2)C1=O (centres undefined)	14	9
CCCc1cc(=O)n(CC(=O)Nc2ccc(Cl)cc2)c(-n2nc(C)cc2C)n1	2	1
COCCN=c1scc(-c2ccc(OC(F)F)cc2)n1N=Cc1ccc(OC)c(OC)c1OC	-2	-12
CCCCCCC[n+]1cccc2ccccc21	5	6
O=C(Nc1nnc(SCc2cc(F)cc(F)c2)s1)c1ccco1	-3	6
C=CCN(Cc1nc2scc(-c3cccc(Cl)c3)c2c(=O)[nH]1)CC(O)Cc1ccccc1 (centres undefined)	13	18
